PrP 5UTR inh – suppresses PrP 5' UTR mRNA reporter expression. AID 488862. cell-based PrP 5' UTR mRNA reporter, plate reader. inhibition, % (no concentration beside the values). 340,000 tested, 0.35% active;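 active = every replicate at 50% or more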;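 also: 0 = median of the neutral control wells; tested in H4 reporter cells; numbers are from one replicate; inactives centre near -14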
Mtb hypoxia inh – inhibitors of hypoxia-regulated fluorescent reporter in Mycobacterium tuberculosis | AID 1159583 | fluorescence inhibition, % (test concentration not listed) | M. tuberculosis hypoxia-regulated fluorescent reporter, fluorescence | 300,000 tested, 0.1% active;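 active = 35 to 45% if threefold the growth effect, above 45% if 1.5-fold the growth effect; inactive = the rest, general growth blockers included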;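 also: wells of about 50 µL received 100 nL stock; 0% = vehicle wells and 100% = reference inhibitor wells; whole bacteria with a GFP reporter of the hypoxia response; strong numbers were not always called active; many hits fall short of the cut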
ugtP null kill – growth inhibition of S. aureus ugtP deletion strain; S. aureus RN4220 ugtP deletion, OD600 growth, 16 h; some inactives read as strong as hits; growth inhibition, % (no concentration beside the values); 330,000 tested, 0.54% active; AID 1259309;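 active = z-score under -3 and OD600 up to 0.15 on both plates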;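 also: plate controls were untreated wells for no effect and antibiotic for full effect; wells of about 80 µL received 100 nL stock; the first replicate is given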
RN4220 kill – kills Staphylococcus aureus RN4220 | inhibition, % (no concentration beside the values) | 330,000 tested, 0.33% active | S. aureus RN4220 growth, OD600, 16 h;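 active = z-score of -3 or lower and OD600 up to 0.18 on both plates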;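 also: plate controls were untreated cells for no effect and reference antibiotic for full effect; stock transfer was 100 nL into about 80 µL; one replicate is shown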
BJeLR viability – kills HRASV12-expressing BJeLR cells. BJeLR (HRASV12) viability, CellTiter-Glo ATP luminescence, 48 h; reference of the scale not given here. 300,000 tested, 0.17% active. inhibition, % (concentration not given with the values). AID 1554;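 active = replicate mean above 50%; inconclusive = above 50% but judged a plate artefact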;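 also: 50 nL library stock added to about 25 µL; numbers are from one replicate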
Autofluor counter – compound fluorescence in toxin protease inhibitor counterscreen. compound autofluorescence counterscreen, microsphere flow cytometry; stronger effect = higher value. fluorescence intensity (no concentration beside the values). 360,000 tested, 3.1% active. AID 624483;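 active = at least 3 SD above the mean of all compounds, about 16000 in these data; inconclusive = too few beads counted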;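 also: 100 nL of 1 mM stock went into each well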
Mtb hypoxia inh growth – second read-out of Mtb hypoxia inh, no call of its own (marks repeat the call); growth inhibition, %; measured here: M. tuberculosis growth (absorbance);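 0% = vehicle and 100% = reference antibiotic; read after six days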
Active calls of the source: *; ? = inconclusive; . = not tested or not shown.

SMILES	PrP 5UTR inh	Mtb hypoxia inh	Mtb hypoxia inh growth	ugtP null kill	RN4220 kill	BJeLR viability	Autofluor counter
Cc1ccc(C(=O)Nc2cccc(-c3ccc(N4CCOCC4)nn3)c2)cc1	-12	-2	-6	13	5.4	7	.
COc1ccc(/C=C/C(=O)c2c(O)n(CCC3=CCCCC3)c(=O)[nH]c2=O)cc1OC	-12	-3	15	-5	-2.3	-4	?
COc1cccc(/C=N/NC(=O)c2cnn(-c3ccccc3)c2N)c1	-81	.	.	.	.	-1	5687
Cc1ccc(C(=O)NCC2CCCO2)cc1N1CCCC1=O (configuration not stated)	-2	5	6	-1	2.1	-3	4969
CC1CCCCC1=NNC(=S)Nc1cccnc1 (configuration not stated)	.	1	2	-5	-3.8	.	.
O=C(Oc1cccc(NC2=NS(=O)(=O)c3ccccc32)c1)c1ccncc1	-23	6	12	1	4.8	-1	4414
COc1ccccc1C(=O)N1C(CC(=O)Nc2ccc(C)c(C)c2)C(=O)NC2CCCCC21 (configuration not stated)	-11	6	-1	1	1.9	14	5504
Cc1onc(-c2ccccc2)c1-c1ccnn1C(=O)NC(C)C	19	-11	2	3	3.6	5	3690
Cc1cc(C)c(C)c(S(=O)(=O)NCc2ccc(C(=O)NCC3CCCO3)cc2)c1C (configuration not stated)	5	7	5	4	3.7	-2	4665
CC(=O)Nc1ccc(S(=O)(=O)N2CCCN(c3nc(C)cc(C)c3C#N)CC2)cc1	-18	-12	-3	5	4.8	4	5691
COc1ccc(CN(C)CC(=O)Nc2ccccc2C(F)(F)F)c(OC)c1	-36	6	-2	2	3.7	-1	2217
Cc1cccc(C)c1NC(=O)CNC(=O)c1ccc(COc2ccccc2)cc1	.	1	-2	-1	2.0	.	5354
O=C(Nc1ccc(N2CCOCC2)cc1)C1(S(=O)(=O)c2ccccc2)CC1	-8	-9	2	-9	-3.3	5	15140
CCCSCCCNC(=O)Cn1cc2c(n1)CCC(C)C2 (configuration not stated)	-21	.	.	1	0.1	-8	5786
O=c1oc(C(O)c2ccccc2)cc2ccccc12 (configuration not stated)	.	12	15	-1	4.4	.	.
O=C(CC12CC3CC(CC(C3)C1)C2)Nc1c(F)cccc1F	-9	-5	-6	11	4.5	-1	3256
C=C1CCN(C(C)C(=O)O)S(=O)(=O)c2ccccc21 (configuration not stated)	-16	6	13	3	4.1	-1	2936
CCCc1cc(=O)oc2c3c(cc(OCC(=O)NCCN4CCOCC4)c12)OC(C)(C)CC3	-10	.	.	4	2.7	-1	5539
COc1cccc(-c2coc3c(C)c4oc(=O)c(CC(=O)O)c(C)c4cc23)c1	-37	2	10	99*	95*	3	3557
COCCN(C(=O)CSc1nc(N)cc(=O)[nH]1)c1c(N)n(Cc2ccccc2)c(=O)[nH]c1=O	-5	3	16	9	0.4	-1	5307
COc1ccc(OC)c(NC(=O)c2ccc(NS(=O)(=O)c3c(C)noc3C)cc2)c1	-10	.	.	3	-6.7	9	3853
Cc1ccc(/C(N)=N/OC(=O)C23CC4CC(CC(C4)C2)C3)cc1	-49	9	6	12	-3.0	-2	4211
O=C(c1ccncc1)N1CCN(C(=O)c2cccs2)CC1	-3	16	13	1	0.6	2	3934
O=C(NCc1ccc2c(c1)OCO2)c1ccc(CS(=O)Cc2ccc(Cl)cc2)o1 (configuration not stated)	2	-2	-1	-3	-5.5	-3	5741
COC(=O)c1ccc(C2C(C(C)=O)=C(C)Nc3ncnn32)cc1 (configuration not stated)	-15	-3	-2	1	1.0	-2	4378
COc1ccc(C=O)cc1Cn1c(C)cc(C)c(C#N)c1=O	2	12	6	5	-1.1	2	4236
COc1ccc(NC2=CC(=O)CC(c3ccc(C)cc3)C2)c(OC)c1 (configuration not stated)	-13	.	.	0	2.7	1	2217
COc1ccc(OC)c(NC(=O)c2ccc(NC3=NC4CS(=O)(=O)CC4S3)cc2)c1 (configuration not stated)	-4	7	9	-3	-2.8	-3	5472
CC(C)Oc1cccc(C(=O)NC(=S)Nc2ccc(N3CCN(C)CC3)cc2)c1	-25	18	16	98*	5.8	15	3516
Cc1nc2ccccc2c(=O)n1/N=C/c1ccc(OC(F)F)cc1	-22	.	.	.	.	-5	2928
CCOc1ccc(S(=O)(=O)NN=C2CC(c3ccccc3)Oc3ccccc32)cc1 (configuration not stated)	.	-1	9	-9	6.5	.	.
CCCn1c(=N)n(CC(=O)c2ccco2)c2ccccc21	-20	5	5	-3	2.1	4	10260
COc1ccc(S(=O)(=O)Nc2cccc3c2OC(CN(C)C(=O)Nc2ccc(C(F)(F)F)cc2)C(C)CN(C(C)CO)C3=O)cc1 (configuration not stated)	.	6	10	-1	-1.4	.	.
CC(=O)Nc1ccc(NC(=O)C2CCCN2S(=O)(=O)c2cccc(C(F)(F)F)c2)cc1 (configuration not stated)	-18	-2	0	1	-1.8	6	?
O=C1C(Cl)=CC(=Nc2ccc(O)cc2)C=C1Cl	-19	10	6	-3	-0.2	.	8079
c1ccc(CN(Cc2ccccc2)c2nn[nH]n2)cc1	-6	3	1	17	3.6	-2	2684
O=C(NCc1ccccc1)C(=O)NCC1OCCCN1S(=O)(=O)c1cccs1 (configuration not stated)	-38	6	9	-5	3.6	-2	5585
COc1cc(-c2c(C#N)c(N)nc(SCc3ccncc3)c2C#N)cc(OC)c1OC	-16	-1	-2	14	6.2	-7	11260
CCN(CC(=O)Nc1c(F)cccc1F)C(=O)C1CC(=O)N(c2ccccc2OC)C1 (configuration not stated)	-34	6	-5	0	0.7	6	5480
COc1ccc(-c2nn(-c3ccccc3)cc2C(=O)NC2CCCCC2C)cc1 (configuration not stated)	-13	11	1	4	-2.8	3	7420
CN(Cc1cccc(F)c1)C(=O)c1cc(=O)[nH]c2ccccc12	-1	-6	5	3	5.5	-13	5904
CC(C)(C)OC(=O)N/N=C\c1ccc(OC(=O)c2cccs2)cc1	-29	.	.	.	.	-5	7408
CCOC1OC(C(=O)NCc2nc3ccccc3[nH]2)=CC(C)C1CCCO (configuration not stated)	.	8	3	0	6.5	.	.
O=C(Nc1cc(S(=O)(=O)N2CCOCC2)ccc1-n1cncn1)c1ccc(Cl)cc1	-13	3	3	-10	-0.6	-1	4806
COc1cccc(NC(=S)NCc2ccco2)c1	-23	2	1	4	5.3	2	2155
O=C(OCCOc1ccc(F)cc1)c1ccc(S(=O)(=O)N2CCCC2)cc1	.	7	-3	10	2.5	.	.
Cc1noc(C(=O)Nc2sc3c(c2C#N)CCC3)c1Cl	-20	6	7	80	83	7	4240
CNS(=O)(=O)c1ccc(N=Cc2c(O)n(-c3cccc(C)c3)c(=O)[nH]c2=O)cc1	-26	5	-4	0	-0.2	0	3105
O=C(CCCNC(=O)/C(=C/c1ccc(F)cc1)NC(=O)c1ccccc1)OCc1ccccc1	-30	10	4	11	7.3	-1	2372
C[n+]1ccn(CC(=O)c2ccc(Br)cc2)c1	-7	16	3	11	4.7	-20	2126
COc1ccc(C2c3c(ccc4ccccc34)Oc3ncn4nc(Cc5ccccc5)nc4c32)cc1OC (configuration not stated)	-18	13	6	8	4.5	-10	2209
Cc1ccc(S(=O)(=O)N2CCN(C(=O)CCOc3cc(C)ccc3C)CC2)cc1	-22	5	2	8	6.2	.	8520
CC(C)NC(=O)NC(=O)COC(=O)CCCSc1nc2ccccc2s1	-25	-15	4	-1	-2.7	-1	2127
CCc1cccc(NC(=O)c2cc(OC)c(OC)c(OC)c2)c1	-18	1	2	-6	-0.3	-12	3297
O=c1[nH]c(/C=C/c2ccc([N+](=O)[O-])cc2)c([N+](=O)[O-])c(=O)[nH]1	-40	7	8	2	3.9	3	3426
O=C1CN(C(=O)c2ccc(Br)o2)C(c2ccc(F)cc2)c2cc(F)ccc2N1 (configuration not stated)	7	-1	6	11	3.0	-2	10908
CC(C)c1onc(C(=O)N2CCN(c3ccccc3)CC2)c1[N+](=O)[O-]	-8	10	6	6	9.7	8	4707
Cc1cc(OCCn2nc(C(=O)O)c3ccccc3c2=O)ccc1C(C)C	-16	-10	-4	-9	11	-11	5840
O=C1CSC(=S)N1c1ccccc1	-21	9	0	0	1.9	.	3616
CC1CCCCN1CCNC(=O)CN1C(=O)COc2ccccc21 (configuration not stated)	0	15	2	6	4.7	-5	10112

Next section:
SMILES	PrP 5UTR inh	Mtb hypoxia inh	Mtb hypoxia inh growth	ugtP null kill	RN4220 kill	BJeLR viability	Autofluor counter
COc1ccc(-n2c(NC(=O)c3ccc(Br)o3)c(C#N)c3nc4ccccc4nc32)cc1	.	5	8	23	16	0	.
CCO[C@H]1OC(C(=O)NC2CC2)=C[C@@H](c2coc3ccccc3c2=O)[C@@H]1CCCO	-25	.	.	.	.	-7	4164
COC(=O)N/N=C(\C)c1cccc(C(F)(F)F)c1	-33	.	.	.	.	6	2910
CC1CC(=O)c2cnc(N)nc2C1 (configuration not stated)	-19	5	9	2	3.9	-1	22837*
O=C(Nc1ccc(Oc2ccc(Cl)cc2)cc1)c1ncn[nH]1	9	.	.	7	-0.5	-7	3266
CC(C)CCNC(=O)CCCC1=NS(=O)(=O)c2ccccc2N1	-12	8	5	-3	3.6	11	2697
Cc1ccc(C(=O)O/N=C(\N)c2ccc(Br)cc2)cc1	-84	-2	3	3	-6.1	-8	3021
CCN(CC(=O)Nc1ccc(S(=O)(=O)N2CCCC2)cc1)CC(=O)Nc1ccccc1C(F)(F)F	-16	0	8	8	1.2	.	3320
O=C(CCCOc1ccc(Cl)cc1Cl)n1nnc2ccccc21	-11	4	-3	-1	2.1	1	6387
C=CCn1c(NC(=O)c2ccc(C)cc2)nc2ccccc21	-52	-3	0	-1	3.4	-4	3860
CN(C)CC(=O)Nc1ccc2cn[nH]c2c1	-42	6	11	3	-0.2	-10	2246
CC(=O)OCc1cc(-c2nn(C)c(=O)c3ccccc23)ccc1C	0	15	4	1	4.8	-2	4484
C[C@@H]1C=C(C(=O)NCc2ccccc2)O[C@H](OCc2ccc(CO)cc2)C1	-14	.	.	.	.	-12	4039
Nc1ccc2c(c1)N1CCN=C1S2	-11	-3	-6	1	1.9	-1	16119
OCCNCCOc1ccccc1-c1ccccc1	-9	.	.	-2	1.9	-9	3180

Some of these compounds in order of formula weight, ascending.
SMILES	PrP 5UTR inh	Mtb hypoxia inh	Mtb hypoxia inh growth	ugtP null kill	RN4220 kill	BJeLR viability	Autofluor counter
O=C1C(Cl)=CC(=Nc2ccc(O)cc2)C=C1Cl	-19	10	6	-3	-0.2	.	8079
Cc1ccc(C(=O)NCC2CCCO2)cc1N1CCCC1=O (configuration not stated)	-2	5	6	-1	2.1	-3	4969
O=C(CC12CC3CC(CC(C3)C1)C2)Nc1c(F)cccc1F	-9	-5	-6	11	4.5	-1	3256
Cc1noc(C(=O)Nc2sc3c(c2C#N)CCC3)c1Cl	-20	6	7	80	83	7	4240
CCCSCCCNC(=O)Cn1cc2c(n1)CCC(C)C2 (configuration not stated)	-21	.	.	1	0.1	-8	5786
CC(C)CCNC(=O)CCCC1=NS(=O)(=O)c2ccccc2N1	-12	8	5	-3	3.6	11	2697
COc1ccc(CN(C)CC(=O)Nc2ccccc2C(F)(F)F)c(OC)c1	-36	6	-2	2	3.7	-1	2217
CC(C)Oc1cccc(C(=O)NC(=S)Nc2ccc(N3CCN(C)CC3)cc2)c1	-25	18	16	98*	5.8	15	3516
CNS(=O)(=O)c1ccc(N=Cc2c(O)n(-c3cccc(C)c3)c(=O)[nH]c2=O)cc1	-26	5	-4	0	-0.2	0	3105
CCOc1ccc(S(=O)(=O)NN=C2CC(c3ccccc3)Oc3ccccc32)cc1 (configuration not stated)	.	-1	9	-9	6.5	.	.
O=C(NCc1ccccc1)C(=O)NCC1OCCCN1S(=O)(=O)c1cccs1 (configuration not stated)	-38	6	9	-5	3.6	-2	5585
Cc1cc(C)c(C)c(S(=O)(=O)NCc2ccc(C(=O)NCC3CCCO3)cc2)c1C (configuration not stated)	5	7	5	4	3.7	-2	4665
CC(=O)Nc1ccc(NC(=O)C2CCCN2S(=O)(=O)c2cccc(C(F)(F)F)c2)cc1 (configuration not stated)	-18	-2	0	1	-1.8	6	?
COc1ccc(-n2c(NC(=O)c3ccc(Br)o3)c(C#N)c3nc4ccccc4nc32)cc1	.	5	8	23	16	0	.
COc1ccc(S(=O)(=O)Nc2cccc3c2OC(CN(C)C(=O)Nc2ccc(C(F)(F)F)cc2)C(C)CN(C(C)CO)C3=O)cc1 (configuration not stated)	.	6	10	-1	-1.4	.	.

Screens: PubChem BioAssay, several laboratories
